# Bioassay records: PubChem BioAssay, ICCB-Longwood Screening Facility, Harvard Medical School
# Sa growth 42C: inhibitors of Staphylococcus aureus growth at 42 °C | S. aureus RN4220 growth, OD600, 20 h; stronger effect = lower value | hit rate 0.53% among 170,000 | relative growth, % (no concentration beside the values);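 active means growth at 42 °C up to 50% and 20 or more points under that at 30 °C, or under 10% at both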;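 further: 300 nL library stock went into each well; scaled to the means of positive and negative controls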
# HCMV UL50-53 inh: inhibitors of HCMV UL50-UL53 nuclear egress complex interaction; hit rate 0.15% among 190,000; inhibition, % (concentration not given with the values); AID 1918969; HTRF UL50-UL53 interaction, normalized percent inhibition;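 active means both replicates at 50% or more, plus weaker picks with an unusually low signal ratio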;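 further: stock transfer was 100 nL into about 20 µL; 0% = negative control wells and 100% = wells with untagged competitor protein; inactives centre near -12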
# GIV Gai3 FP: GIV-Galpha-i interaction inhibition; Galpha-i3/FITC-GIV peptide fluorescence polarization, 90 min; stronger effect = lower value; scaled: aluminum fluoride 0%, vehicle 100%; percent of control (FP), % (test concentration not listed); hit rate 0.42% among 210,000; AID 1224905;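 active means replicate mean at 85% of control or lower, very high polarization wells dropped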;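 further: wells of about 15 µL received 100 nL stock; the first replicate is given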
# Target sequence (P08753 whole entry, looked up): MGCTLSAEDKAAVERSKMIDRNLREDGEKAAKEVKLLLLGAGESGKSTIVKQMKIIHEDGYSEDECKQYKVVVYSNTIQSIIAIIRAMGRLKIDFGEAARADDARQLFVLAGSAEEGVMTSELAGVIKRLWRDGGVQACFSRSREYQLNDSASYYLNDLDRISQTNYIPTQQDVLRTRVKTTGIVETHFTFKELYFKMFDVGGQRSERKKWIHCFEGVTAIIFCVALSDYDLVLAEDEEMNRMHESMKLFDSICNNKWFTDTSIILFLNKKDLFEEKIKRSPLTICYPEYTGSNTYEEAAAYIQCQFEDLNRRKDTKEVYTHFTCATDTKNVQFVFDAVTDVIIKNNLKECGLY
# Sa growth 42C second temp: further read-out of Sa growth 42C, marked with its call; relative growth, %; measured here: growth at 30 °C;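 optical density after 20 h as mean of two plates; 100% = untreated growth and lower means inhibition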
# Numbers without * were called inactive; · = not tested or not shown; & = joins results of further samples.
1) COc1ccc(-c2cc(C)no2)cc1S(=O)(=O)N1CCc2ccccc21
2) Cn1c(-c2ccccc2)cnc1NCc1ccc(Br)cc1
3) COc1ccc(C(=O)N2CCC(C(N)=O)CC2)cc1
4) Cc1ccc(S(=O)(=O)N(C#N)c2nc(N(C)C)nc(N(C)C)n2)cc1
5) COC(=O)Cc1c(C)c2ccc3c(c2oc1=O)CN(Cc1ccccc1Cl)CO3
6) O=S(=O)(NCCc1nc2ccccc2[nH]1)c1ccccc1

assay / entry,1,2,3,4,5,6
Sa growth 42C,90,76,91,92,107,59
GIV Gai3 FP,145,101,98,100,94,105
Sa growth 42C second temp,96,23,90,90,93,90
HCMV UL50-53 inh,·,-5,-24,-3,-18,·

7) Cc1cc(C)c(-c2cc(N)n[nH]2)cc1C
8) CCCNS(=O)(=O)c1cc(OC)ccc1OC
9) O=C(CN1C(=O)c2ccccc2S1(=O)=O)NC1CCCCC1
10) O=C(O)COCC(=O)Nc1ccc(-n2cnnn2)cc1
11) CCn1c(=O)c(N2CCC(C(=O)NCCc3c[nH]c4ccc(C)cc34)CC2)nc2cccnc21
12) Cc1cc2nc(COC(=O)CSc3ccccc3)cc(=O)n2o1

assay / entry,7,8,9,10,11,12
Sa growth 42C,104,95,95,97,·,·
GIV Gai3 FP,·,107,·,102,114,101
Sa growth 42C second temp,42,89,95,81,·,·
HCMV UL50-53 inh,-26,-5,7,-10,-15,-28

13) COC(=O)c1ccccc1NC(=O)C1CCN(c2ncnc3c2sc2cccc(F)c23)CC1
14) Cc1cc(C)c2c(N)c(-c3n[nH]c(=S)n3C)sc2n1
15) NC(=S)c1nc(-c2ccccc2)oc1N
16) O=C(Nc1ccc(F)cc1)c1oc2ccccc2c1NC(=O)C1CCCCC1
17) O=C(CSc1ncnc2nc(N3CCCC3)sc12)Nc1ccccc1Br
18) O=C(/C=C/c1ccc(F)cc1)NC(Cc1ccccc1)C(=O)O (configuration not stated)

assay / entry,13,14,15,16,17,18
Sa growth 42C,86,85,81,96,·,96
GIV Gai3 FP,106,-54*,100,104,101,·
Sa growth 42C second temp,82,28,73,85,·,92
HCMV UL50-53 inh,3,-35,-64,-10,-1,-25

19) CCN(CC)c1c(S(=O)(=O)c2ccccc2)cnc2cc(OC)c(OC)cc12
20) CCc1ccc(NC(=O)C(C)OC(=O)c2ccc3ccccc3n2)cc1 (configuration not stated)
21) Cc1ccc2oc(-c3ccc(NC(=O)c4oc5ccc(Cl)cc5c4C)cc3)nc2c1
22) CC(=O)NC(c1ccccc1)c1ccccc1
23) COc1ccccc1/C=N/OCC(=O)N(C)c1ccccc1
24) O=c1c2ccccc2nnn1CSc1nc2cc(Cl)ccc2c(=O)n1C1CCCC1

assay / entry,19,20,21,22,23,24
Sa growth 42C,64,117,108,130,88,112
GIV Gai3 FP,104,·,106,·,·,·
Sa growth 42C second temp,56,94,86,117,84,98
HCMV UL50-53 inh,-22,-11,-51,-10,-24,-8

25) O=C(Nc1c[nH]c2ccccc2c1=O)NC1CCCC1
26) Cn1c(C(C#N)C(=O)c2cc(-c3cccnc3)nc3ccccc23)nc2ccccc21 (configuration not stated)
27) COC(=O)c1cc(CSc2nc3ccccc3[nH]2)ccc1O
28) O=C(OCC(=O)N1c2ccccc2Sc2ccccc21)c1cnccn1
29) C=COC(=O)c1sc2nc(C)cc(C)c2c1N
30) CCOc1ccc(NC(=S)Nc2cc(C)[nH]n2)cc1

assay / entry,25,26,27,28,29,30
Sa growth 42C,99,90,88,102,98,84
GIV Gai3 FP,103,·,·,·,·,108
Sa growth 42C second temp,87,94,88,97,90,99
HCMV UL50-53 inh,-23,-9,-9,-4,-7,3

31) Cc1ccc(NS(=O)(=O)c2cn(C)cn2)cc1F
32) COc1ccc2nc(N=NC3=C(O)CC(C)(C)CC3=O)sc2c1
33) Fc1ccccc1NC(=S)N/N=C/c1cn(-c2ccccc2)nc1-c1cc2ccccc2o1
34) CCC(C(=O)N1CCN(C)CC1)N1C(=O)CCCc2ccccc21 (configuration not stated)
35) CC(=O)OC1CCC2OC1CCC2OC(C)=O (configuration not stated)
36) CC(=O)n1cc(/C=C2\N=C(c3cccc(C)c3)OC2=O)c2cc(Br)ccc21

assay / entry,31,32,33,34,35,36
Sa growth 42C,·,118,99,·,94,·
GIV Gai3 FP,110,·,·,110,95,105
Sa growth 42C second temp,·,93,96,·,97,·
HCMV UL50-53 inh,-5,-119,0,-9,-13,-6

37) CC(C)NC(=O)C1CCCN1C(=O)Nc1ccccc1 (configuration not stated)
38) Cn1cccc1C(=O)O
39) Cc1oc(-c2ccccc2)nc1C(=O)OCC(=O)c1ccc(Cl)cc1
40) O=C(CS(=O)(=O)c1cccc2nsnc12)N1CCN(c2ccc(F)cc2)CC1
41) Cn1c(=S)sc2c(=O)[nH]c(-c3ccc(Cl)cc3)nc21
42) O=C(c1cnc2ccc(F)cc2c1Nc1ccc(F)c(Cl)c1)N1CCCCC1

assay / entry,37,38,39,40,41,42
Sa growth 42C,81,98,80,99,99,·
GIV Gai3 FP,107,·,·,110,100,95
Sa growth 42C second temp,90,89,92,90,66,·
HCMV UL50-53 inh,12,-22,-27,·,-19,-25

43) CC(C)(C)OC(=O)CSc1nnc(-c2cc(Cl)ccc2Cl)n1N
44) COc1ccc(NC(=O)C2CCN(S(=O)(=O)c3cc(-c4noc(C)n4)sc3C)CC2)cc1OC
45) Cc1ccc(-c2noc(CSc3ccc(-c4ccc5c(c4)OCO5)nn3)n2)cc1C
46) Cc1ccc(NC(=O)c2sc3nc(-c4ccc(F)cc4)ccc3c2N)cc1F
47) O=C(O)CCC(=O)N1CC(=O)Nc2ccc(Br)cc2C1c1ccccc1 (configuration not stated)
48) CCOc1ccc(-c2cc(CCCC(=O)NCCc3ccc(OCC)c(OCC)c3)no2)cc1

assay / entry,43,44,45,46,47,48
Sa growth 42C,101,·,·,107,97,101
GIV Gai3 FP,·,104,111,113,94,99
Sa growth 42C second temp,102,·,·,100,99,92
HCMV UL50-53 inh,0,1,-6,-26,-30,-13

49) Cc1cc(=O)n(CC(=O)N2CCN(Cc3ccc4c(c3)OCO4)CC2)c2c1c(C)nn2-c1ccccc1
50) Cc1cc(C(C)(C)C)ccc1OCC(N)=O
51) Cc1nc2n(n1)C(C(=O)Nc1ccc(F)cc1)CC(=O)N2 (configuration not stated)
52) O=C(CN1CCCC1)OCCCc1ccccc1
53) COc1cccc(CNC(=O)c2cc3c(s2)-c2c(C)cccc2OC3)c1
54) Clc1cccc(Nc2ncnc3c2nc2n3CCCCC2)c1

assay / entry,49,50,51,52,53,54
Sa growth 42C,109,120,·,92,111,73
GIV Gai3 FP,108,·,95,99,104,97
Sa growth 42C second temp,89,99,·,79,85,70
HCMV UL50-53 inh,-27,13,-10,-14,-33,·

55) O=c1c(-c2ccon2)c(O)c2ccccc2n1-c1ccccc1
56) CC(Sc1nnc(-c2ccccc2Br)o1)C(=O)NC1(C#N)CCCCC1 (configuration not stated)
57) CC(Sc1nnnn1-c1ccccc1)C(=O)Nc1nccs1 (configuration not stated)
58) CSC(N)=Nc1ccc(Cl)cc1
59) c1ccc(Cn2nnnc2C(c2cccnc2)N2CCN(c3ccccc3)CC2)cc1 (configuration not stated)
60) CCOC(=O)c1ccccc1NC(=O)Nc1cc2c(cc1N1CCCCC1)n(C)c(=O)n2C

assay / entry,55,56,57,58,59,60
Sa growth 42C,67,67,87,119&100,109,99
GIV Gai3 FP,·,·,98,98&102,104,107
Sa growth 42C second temp,55,76,85,85&96,87,91
HCMV UL50-53 inh,9,-14,2,-10&-2,-21,-10

61) CCCCn1nc(C(=O)Nc2ccccc2)c2ccccc2c1=O
62) O=C1CCCC(O)=C1C=Nc1ccccc1
63) O=C(Cn1c(=O)n(CCCS(=O)(=O)C2CCCCC2)c(=O)c2ccccc21)Nc1ccccc1F
64) CC(N=C1CC(C)(C)CC(=O)/C1=C(O)/C=C/c1ccccc1)C(=O)O (configuration not stated)
65) CC1CCCCC1NC(=O)COC(=O)c1cc(=O)c2ccccc2o1 (configuration not stated)
66) O=C(N/N=C/C1=C(Sc2nc3ccccc3o2)CCCC1)C1COc2ccccc2O1 (configuration not stated)

assay / entry,61,62,63,64,65,66
Sa growth 42C,110,89,99,99,87,76
GIV Gai3 FP,·,98,100,·,·,·
Sa growth 42C second temp,72,85,92,86,99,88
HCMV UL50-53 inh,-21,-6,4,-37,-10,-33

67) O=C(NC(=NCc1ccncc1)Nc1ccc2c(c1)OCO2)c1cccc(Br)c1
68) O=C(C1CCC(CNS(=O)(=O)c2ccc(Br)s2)CC1)N1CCN(c2ccccc2Cl)CC1 (configuration not stated)
69) COC(=O)c1cn(C(C)C(=O)NCc2ccco2)c2ccccc12 (configuration not stated)
70) CCSc1nnc2c(n1)OC(c1cc(O)ccc1Br)Nc1ccccc1-2 (configuration not stated)
71) C=CCn1cnc2c(c1=O)c1nc3ccccc3nc1n2-c1cccc(Br)c1
72) CC(Oc1cccc2ccccc12)C(=O)NN (configuration not stated)

assay / entry,67,68,69,70,71,72
Sa growth 42C,·,105,99,96,98,96
GIV Gai3 FP,100,102,104,116,103,100
Sa growth 42C second temp,·,88,96,92,89,94
HCMV UL50-53 inh,-21,-3,-2,-5,-29,-10

73) Cc1nc2ccccc2n1CCNC(=O)COc1ccccc1
74) CCc1ccc(NC(=S)NC(=O)c2cccs2)cc1
75) CCOc1ccc(NS(=O)(=O)c2cc(-c3c(C)noc3C)ccc2C)cc1
76) O=C(OCn1nnc2ccccc2c1=O)C1CC(O)CN1S(=O)(=O)c1ccc(Cl)cc1 (configuration not stated)
77) Cn1c(CSc2cccs2)nnc1SCC(=O)c1ccccc1
78) CC1CCN(S(=O)(=O)c2ccc3c(c2)N(CC(=O)N(C)c2ccccc2)C(=O)CC(C)S3)CC1 (configuration not stated)

assay / entry,73,74,75,76,77,78
Sa growth 42C,·,96,·,97,106,·
GIV Gai3 FP,103,100,100,·,98,101
Sa growth 42C second temp,·,72,·,108,74,·
HCMV UL50-53 inh,-36,·,-24,-21,-10,-25

79) CCN(C(=O)C(C)Nc1ccc(OC)cc1OC)C1CCCCC1 (configuration not stated)
80) CC(C)=NNC(=O)c1cccn1C
81) CCC(=O)N1CCC(c2nc3ccccc3o2)CC1
82) COc1ccc(-c2nnc(NCc3nc4ccccc4[nH]3)c3ccccc23)cc1
83) CC1CC(C)CC(S(=O)(=O)N2CCC(C(=O)O)CC2)C1 (configuration not stated)
84) Cc1ccc(S(=O)(=O)NC(=O)NCC2CCN(C(=O)OC(C)(C)C)CC2)cc1

assay / entry,79,80,81,82,83,84
Sa growth 42C,93,102,·,·,98,101
GIV Gai3 FP,·,110,110,100,99,103
Sa growth 42C second temp,73,93,·,·,97,94
HCMV UL50-53 inh,-35,-8,-9,-27,10,-17

# Looked up above.
# Reading of cpd 79 under Sa growth 42C second temp: 73
# Reading of cpd 81 under GIV Gai3 FP: 110

# Continued:
85) Cc1ccc2c(c1)C(Cc1oc3c(C)cccc3c1C)C(=O)N2 (configuration not stated)
86) CCCN1CC=C2C(C#N)=C(N)C(C#N)(C#N)C(c3ccc(F)cc3F)C2C1 (configuration not stated)
87) O=C(Cc1ccccc1)Nc1nnc2n1CCS2
88) Cc1ccccc1COc1ccc2oc(-c3ccco3)cc(=O)c2c1
89) CCN1C(=O)c2cccc3c(S(=O)(=O)N4CCC(C)CC4)ccc1c23
90) CCS(=O)(=O)N1CCNCC1

assay / entry,85,86,87,88,89,90
Sa growth 42C,·,96,96,107,106,119
GIV Gai3 FP,105,44*,101,115,·,101
Sa growth 42C second temp,·,78,93,96,95,89
HCMV UL50-53 inh,-10,-40,·,-12,-50,-23

91) CCn1cc2nc(SCc3ccccc3Cl)n(CCc3ccccc3)c(=O)c2n1
92) CC(=O)Oc1ccc2c(=O)c(-c3ccccc3C)c(C)oc2c1C
93) O=C1S/C(=C/c2ccccc2F)C(=O)N1CNc1cccc(Br)c1
94) COc1nc2c(c(-c3ccc[nH]3)c1C#N)Cc1ccccc1-2
95) CCOC(=O)C1CCN(C(=O)c2cnn(-c3ccc(F)cc3)c2-n2cccc2)CC1
96) COc1ccc(/C=C(\C#N)c2nc(-c3ccc(Cl)c(Cl)c3)cs2)cc1OC

assay / entry,91,92,93,94,95,96
Sa growth 42C,88,91,·,90,66,109
GIV Gai3 FP,102,99,96,102,103,104
Sa growth 42C second temp,95,91,·,84,84,95
HCMV UL50-53 inh,·,·,-5,-11,·,-30

# Next part; the last 4 above are carried over.
93) O=C1S/C(=C/c2ccccc2F)C(=O)N1CNc1cccc(Br)c1
94) COc1nc2c(c(-c3ccc[nH]3)c1C#N)Cc1ccccc1-2
95) CCOC(=O)C1CCN(C(=O)c2cnn(-c3ccc(F)cc3)c2-n2cccc2)CC1
96) COc1ccc(/C=C(\C#N)c2nc(-c3ccc(Cl)c(Cl)c3)cs2)cc1OC
97) Clc1ccc(-c2nnc(NCCN3CCCC3)c3ccccc23)cc1
98) Cc1ccc(NC(=O)CSc2nc(-c3cccs3)cc(C(F)(F)F)n2)cc1C
99) O=C(O)CCN1C(=O)/C(=C/c2ccc(Br)cc2)SC1=S
100) CN1C(=O)Cc2cc(S(=O)(=O)N(C)CCc3noc(C4CCCCC4)n3)ccc21

assay / entry,93,94,95,96,97,98,99,100
Sa growth 42C,·,90,66,109,·,117,·,·
GIV Gai3 FP,96,102,103,104,105,103,106,105
Sa growth 42C second temp,·,84,84,95,·,108,·,·
HCMV UL50-53 inh,-5,-11,·,-30,-22,23,-10,2
